Screening results as filed in PubChem.
TRPV1 potentiator – human TRPV1 potentiation; Q8NER1; TRPV1-expressing cells, Fluo-8 calcium influx, capsaicin EC20 potentiation; host cell line not named in the record; control for the full effect not named in the record; potentiation, % at 8.33 µM; actives 0.02% (n = 320,000); AID 540277; active means potentiation above 80%; inconclusive means 30% to 80%; inactive means below 30%; further: 0% is about no effect
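TRPV1-expressing cells were cultured overnight at 35.5C and loaded with Fluo-8 calcium dye for 40 to 90 min at room temperature. After a 10 s baseline, compound was added and calcium influx was read kinetically for 3 min (ex 480/em 520 nm).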
Six1-Eya2 blk – inhibitors of human Six1/Eya2 interaction; Q15475+O00167; AlphaScreen GST-Six1/His-Eya2 binding, biochemical; hits give low values; control for the full effect not named in the record; activity change, % (no concentration beside the values); actives 0.56% (n = 360,000); AID 651725; in the data active = activity change below about -65%; inconclusive = about -30% to -65%; inactive = above about -30%; further: on the % scale 0 is the no-effect control and ±100 the full control effect; compound concentration not given in the record
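AlphaScreen with GST-Six1 and His-Eya2 (5X mix: 250 nM and 500 nM), glutathione donor and nickel acceptor beads; buffer 50 mM Tris pH 8.0, 300 mM NaCl, 1 mM TCEP; 1 h at 37 C in the dark.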
TRPML1 ag – human mucolipin-1 channel agonism; TRPML1-expressing cells, Ca2+ dye fluorescence, FDSS; host cell line not named in the record; reference of the full effect not given here; activation, % (concentration not given with the values); actives 0.12% (n = 410,000); in the data active = activation above about 50%; inconclusive = about 30% to 50%; inactive = below about 30%; further: 0% is about no effect; the text of the record puts the active cut at 80%
Target sequence (Q9GZU1 whole entry, looked up): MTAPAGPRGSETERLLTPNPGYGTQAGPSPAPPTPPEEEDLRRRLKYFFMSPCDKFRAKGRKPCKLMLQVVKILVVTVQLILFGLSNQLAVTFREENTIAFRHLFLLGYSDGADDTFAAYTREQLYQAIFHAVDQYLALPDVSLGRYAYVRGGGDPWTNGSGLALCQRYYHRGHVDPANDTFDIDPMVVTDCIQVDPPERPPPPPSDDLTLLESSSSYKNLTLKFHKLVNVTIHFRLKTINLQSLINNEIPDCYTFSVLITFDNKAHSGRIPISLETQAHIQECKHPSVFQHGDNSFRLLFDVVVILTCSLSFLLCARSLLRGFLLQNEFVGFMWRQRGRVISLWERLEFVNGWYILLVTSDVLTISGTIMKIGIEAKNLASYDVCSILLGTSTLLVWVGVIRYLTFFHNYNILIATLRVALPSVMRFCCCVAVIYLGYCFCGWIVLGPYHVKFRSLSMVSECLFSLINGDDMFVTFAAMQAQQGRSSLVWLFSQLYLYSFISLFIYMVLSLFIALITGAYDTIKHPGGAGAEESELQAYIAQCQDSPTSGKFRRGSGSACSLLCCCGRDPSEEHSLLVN
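Calcium fluorescence on an FDSS kinetic reader gave the read-out. Tet-induced TRPML1-DL cells were plated overnight, dye-loaded (Ca8 with quencher, 45-90 min, room temperature, dark), then read 110 s after compound addition, and again 110 s after 4uM final 54-4 (EC80).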
D2 PAM – potentiates the human D2 dopamine receptor allosterically. P14416. DiscoveRx D2 beta-arrestin cells, luminescence, 90 min; 100% = 57 uM dopamine signal. potentiation, % (no concentration beside the values). actives 0.23% (n = 360,000). AID 624464; active = potentiation of 50% or more; inconclusive = 30% to 50%; inactive = 30% or less;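 further: compound concentration not given in the record; tested on top of an EC20 dose of dopamine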
Target sequence (P14416 whole entry, looked up): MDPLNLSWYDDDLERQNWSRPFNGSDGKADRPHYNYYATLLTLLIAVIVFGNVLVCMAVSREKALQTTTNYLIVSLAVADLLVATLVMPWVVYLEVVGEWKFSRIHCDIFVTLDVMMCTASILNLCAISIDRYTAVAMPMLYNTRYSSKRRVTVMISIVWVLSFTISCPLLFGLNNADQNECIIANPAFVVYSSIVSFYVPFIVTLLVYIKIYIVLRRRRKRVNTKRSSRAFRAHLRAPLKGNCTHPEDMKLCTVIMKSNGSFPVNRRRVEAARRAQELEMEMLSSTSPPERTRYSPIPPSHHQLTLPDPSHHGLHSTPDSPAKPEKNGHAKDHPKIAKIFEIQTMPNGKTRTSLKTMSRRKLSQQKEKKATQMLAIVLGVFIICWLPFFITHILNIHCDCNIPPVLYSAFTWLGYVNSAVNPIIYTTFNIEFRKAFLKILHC
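PathHunter D2 cells, attached overnight at 37 deg C, received compound in DMSO plus dopamine at EC20 (50 nM final) for 90 min at 37 deg C. Beta-arrestin recruitment was read as luminescence after 1 h with detection reagent at ambient temperature.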
TRPML1 inh – blocks the human TRPML1 channel; TRPML1-inducible cells, Ca2+ dye fluorescence, FDSS; hits give low values; inhibition of EC80 agonist-evoked calcium signal; activity change, negative = inhibition, % (no concentration beside the values); actives 0.02% (n = 390,000); Q9GZU1; in the data active means activity change below about -50%; inconclusive means about -30% to -50%; inactive means above about -30%;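 further: stimulus is agonist 54-4 at its EC80 concentration; on the % scale 0 is the no-effect control and ±100 the full control effect; compound concentration not given in the record; the text of the record puts the active cut at -80%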
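Calcium fluorescence in TRPML1-DL cells induced overnight with Tet: a 110 s read after compound pin addition, then a 110 s antagonist read after challenge with 54-4 at 4 uM final (EC80).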
CtBP-E1A blk – CtBP/E1A binding inhibition; actives 0.49% (n = 340,000); activity change, % (concentration not given with the values); AlphaScreen GST-E1A/His-CtBP binding, 1536-well; hits give low values; control for the full effect not named in the record; in the data active means activity change below about -65%; inconclusive means about -30% to -65%; inactive means above about -30%; further: on the % scale 0 is the no-effect control and ±100 the full control effect
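AlphaScreen with 125 nM GST-E1A and 125 nM His-CtBP (5X stocks) in Tris pH 8.0, 300 mM NaCl, BSA, Tween 20, TCEP. Compounds preincubated 2 h at 37 deg C, then glutathione donor/nickel acceptor beads added for 1 h at 37 deg C in dark.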
* marks the source's active call; other numbers are inactive results; ? = inconclusive; / = not tested or not shown.

SMILES | TRPV1 potentiator | Six1-Eya2 blk | TRPML1 ag | D2 PAM | TRPML1 inh | CtBP-E1A blk
CC(C)CC(=O)NC1(C(F)(F)F)C(=O)Nc2c1c(=O)[nH]c(=O)n2Cc1ccco1 (stereo not drawn) | 1 | 5 | -0.3 | 7 | ? | 10
COC(=O)c1cc(NC(=O)CN(c2cccc(OC)c2)S(=O)(=O)c2ccccc2)ccc1Cl | -1 | -16 | -0.7 | -11 | -4 | ?
O=C(Nc1c2c(nn1-c1ccc(F)cc1)CS(=O)(=O)C2)C1CCCC1 | -13 | 5 | -0.9 | -13 | 12 | 4
OCCNc1ccc(Cl)cc1 | 7 | -4 | -0.9 | -13 | -20 | 1
O=S(=O)(Nc1c(S(=O)(=O)c2ccccc2)c2nc3ccccc3nc2n1C1CCCCC1)c1ccccc1 | -7 | 22 | 4.4 | -18 | -3 | -12
O=C(O)CC(SCC(=O)Nc1ccc(S(=O)(=O)N2CCCC2)cc1)C(=O)O (stereo not drawn) | 3 | 25 | 1.3 | -5 | -12 | 18
N/C(=N\OS(=O)(=O)c1ccccc1)c1ccccn1 | -8 | ? | -0.2 | 6 | 10 | -2
CC(NC(=O)c1ccccc1Cl)NC(=O)c1ccccc1Cl | 16 | 10 | 0.4 | -2 | 24 | -11
CCOC(=S)SCC(=O)N1CCc2ccccc2C1C1C(=O)CC(C)(C)CC1=O (stereo not drawn) | 22 | 0 | 0.9 | 0 | 12 | 9
COCCn1nnnc1CN1CCC(C)CC1 | 3 | -2 | 0.1 | ? | -11 | 0
COc1ccc(CCN2CN(S(=O)(=O)c3ccc(C)cc3)c3nc4ccccc4nc32)cc1OC | -1 | 1 | -0.2 | -12 | 2 | 0
COc1ccc(NC(C)=O)cc1NC(=O)CN1CCN(c2ccccn2)CC1 | 12 | 9 | -0.4 | -2 | -5 | 6
O=C(O)CSc1nnc(-c2ccc(Cl)cc2Cl)n1Cc1ccccc1 | 3 | 3 | -0.4 | -4 | 13 | 2
CCOc1c(Nc2ccccc2O)c(=O)c1=O | ? | -1 | -0.7 | 4 | 30 | 9
COCCCNS(=O)(=O)c1ccc(Cl)c(C(F)(F)F)c1 | -14 | 8 | 1.7 | 1 | -8 | /
Cc1ccccc1N1CCN(C(=O)C2CCCCC2)CC1 | 1 | 11 | 1.3 | -27 | -2 | -2
Cc1cccc(C(=O)O/N=C(\N)c2cccc([N+](=O)[O-])c2)c1 | -8 | -9 | 2.8 | 20 | 16 | -16
COc1cc(NC(=O)c2cc(-c3cccnc3)nc3ccc(Br)cc23)cc(OC)c1 | 1 | -3 | 0.7 | -4 | -4 | -17
Nc1n[nH]c(N)c1N=Nc1ccc2c(c1)OCO2 | 12 | -3 | 2.7 | -3 | 9 | /
COc1ccc(OC)c(CN2CCN(C(=O)CNC(=O)c3ccccc3F)CC2)c1 | / | -2 | -0.3 | -8 | 2 | 3
COc1ccc(-c2nnc(SCC(=O)N3CCOCC3)n2C)cc1OC | 1 | 1 | 0.1 | 2 | 9 | 6
Cc1oc2c(CN3CCCC3)c(O)ccc2c(=O)c1-c1ccc(Br)cc1 | -5 | 0 | 0.3 | -4 | 4 | 11
COc1ccccc1C(=O)NCC(=O)OCC(=O)c1ccc(Cl)s1 | -14 | -5 | -0.1 | -16 | -10 | -3
COc1cccc(C(=O)NC(=S)Nc2nnn(C)n2)c1 | 8 | -5 | 0.3 | -50 | -4 | -2
CS(=O)c1ccccc1-c1nc(-c2cccc(Cl)c2)no1 (stereo not drawn) | 28 | 5 | 1.0 | -8 | 6 | 9
COc1ccc(S(=O)(=O)N2CCC(C(=O)N3CCc4ccccc4C3)CC2)cc1C | 3 | -7 | -0.4 | -14 | 1 | -6
NC(=S)Cc1ccc(Cl)cc1Cl | ? | -20 | -0.2 | -13 | 13 | 1
COc1ccc(CC(=O)Nc2nnc(CC(C)C)s2)cc1S(=O)(=O)N1CCOCC1 | 15 | -4 | -0.1 | -5 | -12 | 12
CN(CCOC(=O)c1ccco1)Cc1ccccc1 | -5 | 0 | 1.0 | -32 | 14 | -8
COCCNC(=S)Nc1ccc(N2CCOCC2)c(S(=O)(=O)Nc2ccc(Cl)cc2)c1 | / | -3 | -0.2 | -25 | 13 | -3
Cc1ccc(CNC(=O)CNC(=S)N(Cc2ccccc2)Cc2ccccc2F)cc1 | -1 | -3 | 0.1 | -3 | 0 | 2
COC(=O)C(NC(=O)c1ccccc1)(Nc1nccs1)C(F)(F)F (stereo not drawn) | 13 | 0 | -1.4 | ? | 15 | 2
Cc1ccc(-n2cnc3c(=O)[nH]cnc32)cc1 | / | -3 | -0.2 | -4 | -9 | -6
Cc1nc2cc(NC(=O)COc3ccc(C#N)cc3)ccc2n1-c1ccccc1 | 13 | 0 | 2.7 | -29 | 6 | -11
CSc1ccccc1C(=O)NCCS(=O)(=O)N1CCN(c2ccc(F)cc2)CC1 | -1 | -2 | -1.3 | -6 | -1 | 4
CN(C)S(=O)(=O)c1cccc(NC(=O)c2ccc(S(=O)(=O)N3CCCCC3)cc2)c1 | 6 | -2 | 1.7 | -39 | 6 | 5

2 entries from above, with values under each structure.
Screens in order: TRPV1 potentiator | Six1-Eya2 blk | TRPML1 ag | D2 PAM | TRPML1 inh | CtBP-E1A blk
- NC(=S)Cc1ccc(Cl)cc1Cl
    ? | -20 | -0.2 | -13 | 13 | 1
- COc1ccc(CC(=O)Nc2nnc(CC(C)C)s2)cc1S(=O)(=O)N1CCOCC1
    15 | -4 | -0.1 | -5 | -12 | 12

Later entries.
SMILES | TRPV1 potentiator | Six1-Eya2 blk | TRPML1 ag | D2 PAM | TRPML1 inh | CtBP-E1A blk
CCOC(=O)N1CCN(Cc2nc3cc(NC(=O)c4ccco4)ccc3n2CC)CC1 | -5 | -5 | -0.2 | -27 | 6 | -4
Cc1ccc(CC(=O)NNC(=O)c2cccs2)cc1C | 26 | -2 | -0.6 | -9 | -8 | 3
Cc1ccc(CN2CC(N3CCC(Cc4ccccc4)CC3)CS2(=O)=O)cc1 (stereo not drawn) | / | -9 | -0.1 | -5 | / | -9
CC(=O)N1CCN(Cc2nc3cc(NC(=O)c4ccc(Cl)cc4)ccc3n2C)CC1 | -4 | -4 | 0.8 | -2 | 4 | -2
Cc1ccc(C2NC(=S)NC3=C2N2CCC3CC2)cc1 (stereo not drawn) | -6 | 6 | 0.3 | -4 | 33 | -6
Cc1ccc(-c2ccccc2C2=CC(=O)CC(C)(C)C2=O)cc1 | / | -15 | 0.3 | 4 | 10 | -1
Cc1cc(-c2csc(N)n2)c(C)n1C | -15 | ? | 0.0 | 22 | -3 | -26
CN(C)C(=S)NC(=S)Nc1ccc2ccccc2c1 | / | -6 | -0.4 | -33 | -12 | -2
CC(Oc1ccccc1)C(=O)Nc1cc(Cl)ccc1-n1cncn1 (stereo not drawn) | -1 | 0 | 0.5 | -27 | -4 | 8
COCCN1C(=O)CCC1(C)C(=O)Nc1ccc2ccccc2c1 (stereo not drawn) | / | 6 | -0.6 | -7 | / | 6
CC(=O)Nc1cccc(OCC(=O)Nc2ccc(F)cc2)c1 | -1 | 1 | 0.5 | -11 | -8 | 2
COc1ccccc1NS(=O)(=O)c1ccc2c(c1)CCN2C(=O)CCC(=O)O | 7 | -6 | -0.3 | -12 | -16 | -1

Full records, looked up by structure.
Profile of NC(=S)Cc1ccc(Cl)cc1Cl → TRPV1 potentiator = ?; Six1-Eya2 blk = -20; TRPML1 ag = -0.2; D2 PAM = -13; TRPML1 inh = 13; CtBP-E1A blk = 1
Profile of Cc1ccc(-n2cnc3c(=O)[nH]cnc32)cc1 → TRPV1 potentiator = /; Six1-Eya2 blk = -3; TRPML1 ag = -0.2; D2 PAM = -4; TRPML1 inh = -9; CtBP-E1A blk = -6
Profile of COCCn1nnnc1CN1CCC(C)CC1 → TRPV1 potentiator = 3; Six1-Eya2 blk = -2; TRPML1 ag = 0.1; D2 PAM = ?; TRPML1 inh = -11; CtBP-E1A blk = 0

Going on with the list:
SMILES | TRPV1 potentiator | Six1-Eya2 blk | TRPML1 ag | D2 PAM | TRPML1 inh | CtBP-E1A blk
C=CCN1C=CC(=C/C=C(/C#N)C(=O)OCC)C=C1 | -21 | -2 | ? | -6 | 18 | -2
C/C=C/n1ccnc1CC(O)(c1ccccc1)c1ccc(C)cc1 (stereo not drawn) | / | -7 | 2.9 | -4 | 15 | 2
O=C(Nc1cccc2ccccc12)c1ccccc1NS(=O)(=O)c1cccc2cccnc12 | 6 | 7 | -0.4 | -6 | -7 | -8
CN1CCN(C(=O)c2cnn(-c3ccccc3)c2NC(=O)c2ccccc2Br)CC1 | 10 | 0 | 0.4 | -10 | 2 | 5
COCc1cc(C(C)=O)ccc1OCC(=O)Nc1ccc(NC(C)=O)cc1 | 2 | -2 | -0.5 | -1 | -4 | 0
O=C(CSc1nncs1)Nc1nccs1 | -6 | 8 | -0.2 | -6 | -1 | -4
O=S(=O)(c1ccc(C2CCCCC2)cc1)N1CCCC1 | 2 | -2 | 1.0 | 1 | -4 | -4
CC(OC(=O)CCN1C(=O)C2CC=CCC2C1=O)C(=O)Nc1cccc(C#N)c1 (stereo not drawn) | -14 | 6 | 0.3 | 6 | -8 | 6
Cc1nc(NC(=O)CN2CCN(c3ccccc3F)CC2)sc1C(=O)N(C)C | -4 | 13 | / | -26 | / | /
CCc1ccc2[nH]c(C(=O)Nc3ccc(C)c(F)c3)cc2c1 | -7 | -9 | 0.0 | -32 | -23 | -6
O=C(Nc1cccc(Cl)c1)c1csc([C@@H]2O[C@H](CO)[C@H](O)[C@H](O)[C@H]2O)n1 | / | 7 | 0.0 | -15 | -1 | 8
c1ccc2c(-n3cnnn3)cccc2c1 | -13 | -10 | -0.5 | -2 | 9 | -6
Cc1ccc(S(=O)(=O)N2CCC(C(N)=O)CC2)c(C)c1C | 6 | 0 | -0.4 | 3 | -6 | 1
O=C(CSc1ncccn1)Nc1cc(Cl)ccc1[N+](=O)[O-] | 12 | 9 | -0.4 | 21 | 14 | -12
CC(C)[C@@H]1Cc2[nH][nH]c(=O)c2[C@H](C)O1 | / | 1 | -0.4 | / | / | 3
O=C(Nc1ccc(N2CCCC2=O)cc1)c1cncc(Br)c1 | 12 | 0 | -0.3 | -6 | 5 | 6
COc1cc(C)c(Br)cc1S(=O)(=O)NCc1cccs1 | -4 | 0 | -0.1 | 8 | 0 | 1
COC(=O)[C@@H]1C[C@H]2CC[C@H](O)C[C@H]2N1Cc1ccc(C)s1 | -41 | 6 | -0.5 | -4 | 34 | 6
Cc1cc2[nH]c(=O)c(=O)[nH]c2cc1S(=O)(=O)N(C)C1CCCCC1 | -23 | 4 | 1.3 | -1 | -5 | -2
COc1ccccc1N1C[C@@H]2C[C@@H](c3ccco3)N3CCC[C@@]23C1=O | -2 | 7 | 0.1 | -4 | 0 | 2
C=CC[C@H](CC(=O)NCCO)C(=O)NC[C@@H](OC(=O)[C@@H](CC=C)CC(=O)OC(C)(C)C)c1ccccc1 | / | 8 | -0.7 | -11 | -6 | -5
CCc1nc2ccc(C(=O)N(CC)CCN(C)C)cn2c1N(CC)C(=O)NCCc1ccccc1 | / | 18 | -0.3 | -11 | / | 0
COCc1nnc(NC(=O)c2cccs2)s1 | 22 | 5 | -0.3 | -6 | 2 | 11
CSCCC(NC(=O)c1ccccc1)C(=O)N1CCN(C(c2ccccc2)c2ccccc2)CC1 (stereo not drawn) | -3 | -9 | 1.7 | -9 | -6 | -9
Cc1cc(C)n2nc(CC(=O)NC3CCCCCCC3)nc2n1 | 4 | 5 | 0.6 | 5 | -4 | -5
